PV pol inh: poliovirus RdRp elongation inhibitors, primary screen, biochemical, fluorescence polarization, total intensity; Genome polyprotein (Poliovirus type 1 (strain Mahoney)), P03300; poliovirus polymerase elongation; active compounds read low; % elongation, % (compound at 16.7 µg/mL); 0.66% of 150,000 active; AID 588519, 2011; in the data active = % elongation below about 90%; also: some results filed as inactive read as strong as hits
Target sequence (P03300 1749-2209 limits assumed): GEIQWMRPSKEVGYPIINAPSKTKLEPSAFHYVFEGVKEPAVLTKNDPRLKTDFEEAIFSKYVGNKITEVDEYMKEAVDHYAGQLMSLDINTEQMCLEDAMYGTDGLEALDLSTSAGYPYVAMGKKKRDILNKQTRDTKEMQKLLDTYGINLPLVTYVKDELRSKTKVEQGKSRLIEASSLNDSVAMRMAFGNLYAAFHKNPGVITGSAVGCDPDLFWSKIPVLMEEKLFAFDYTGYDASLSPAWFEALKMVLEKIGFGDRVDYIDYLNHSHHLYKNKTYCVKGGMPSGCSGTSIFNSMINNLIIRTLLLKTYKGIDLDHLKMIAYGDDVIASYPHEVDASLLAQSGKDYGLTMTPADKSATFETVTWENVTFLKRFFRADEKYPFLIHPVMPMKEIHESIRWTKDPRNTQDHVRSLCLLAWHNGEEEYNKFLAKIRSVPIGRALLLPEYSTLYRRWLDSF
PV pol inh intensity: also measured in PV pol inh; calls as there; % elongation; measured here: total intensity read-out; formula for this scale not given here;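 total fluorescence in place of polarization; lower means less elongation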
The depositor's hits bear a star. An excerpt; count on the stated rates, not on these rows.

SMILES	PV pol inh	PV pol inh intensity
CCOC(=O)C1CCN(c2ncnc3c2nc2n3CCCCC2)CC1	107	112
COc1ccc(OC)c(CNC(=O)CN2N=C(c3ccc(Cl)cc3)CCC2=O)c1	113	118
COc1ccc(C)cc1NC(=O)c1ccc(NS(=O)(=O)c2c(C)noc2C)cc1	105	103
Cc1ccc(NC(=O)Cn2cc(C(=O)c3ccco3)c3ccccc32)cc1C	106	112
COc1ccc(C)cc1NC(=O)c1cc(S(=O)(=O)N2CCC(C)CC2)cn1C	109	113
COc1ccc2cc(-c3nnc(Nc4ccccc4)s3)c(=O)oc2c1	106	108
COc1ccc2c(c1)CCc1c(C(=O)Nc3c(C)nn(Cc4ccccc4)c3C)noc1-2	100	106
O=C(Nc1ccc(Cl)c(C(F)(F)F)c1)c1ccc2c(c1)CCN2S(=O)(=O)c1ccccc1	114	116
Cc1ccc(O)c(NC(=O)CCS(=O)(=O)c2nc(-c3cccs3)cc(C(F)(F)F)n2)c1	108	110
O=C(Cc1ccc(F)cc1)N1CCC(c2nc3c(nnn3Cc3ccc(Cl)cc3)c(=O)[nH]2)CC1	108	107
COC(=O)c1c(NC(=O)COc2ccc(C(C)C)cc2)sc2c1CCCC2	104	110
CCOc1ccc(C2C=C(c3cccc(OC)c3)Nc3nnnn32)cc1 (configuration not stated)	107	114
CCOC(=O)c1c(C)[nH]c(CCC(=O)NC(C)c2ccccc2)c1C (configuration not stated)	114	118
O=C(NC1CCCC1)c1ccc(CSc2nc3cccnc3n2Cc2ccccc2F)cc1	106	109
CCc1nn2c(=O)cc(COC(=O)c3cccc(NC(=O)COc4ccccc4F)c3)nc2s1	101	94

Reprinted at random: two compounds from above
SMILES	PV pol inh	PV pol inh intensity
O=C(NC1CCCC1)c1ccc(CSc2nc3cccnc3n2Cc2ccccc2F)cc1	106	109
Cc1ccc(NC(=O)Cn2cc(C(=O)c3ccco3)c3ccccc32)cc1C	106	112

Further compounds follow.
SMILES	PV pol inh	PV pol inh intensity
CC1CCCN(c2nc(-c3ccccc3O)nc3ccccc23)C1 (configuration not stated)	106	106
O=c1c2ccccc2n2c(-c3cccc(F)c3)nnc2n1Cc1ccccc1	112	115
CCCC(=O)Nc1cccc(-c2cn3cccnc3n2)c1	111	111
CCOc1ccc(Br)cc1C1C(C(=O)OC)=C(C)NC2=C1C(=O)c1ccccc12 (configuration not stated)	104	108
Cc1cccc2sc(N(Cc3cccnc3)C(=O)Cc3ccccc3)nc12	104	104
COc1cccc(C2C(C(=O)Nc3ccccc3OC)=C(C)Nc3nc(-c4ccco4)nn32)c1 (configuration not stated)	106	106
O=C(NCc1noc2ccccc12)Nc1ccc(F)cc1F	105	97
O=C(Cn1nc(-c2ccccc2)c2c(c1=O)CCCC2)Nc1ccc(F)c(Cl)c1	113	101
COc1cc(NC(=O)c2ccccc2)ccc1NC(=O)c1cc2ccccc2o1	107	109
CCOC(=O)c1c(-c2ccccc2)oc2ccc(N(C(C)=O)S(=O)(=O)c3ccc(CC)cc3)cc12	108	113
CNC(=O)C1CCN(Cc2cc3ccccc3n2Cc2ccccc2C)CC1	108	112
CN1C(=O)C2(SCC(=O)N2c2cccc(C(F)(F)F)c2)c2ccccc21 (configuration not stated)	108	98
CCOC(=O)CNC(=O)N1CCN(S(=O)(=O)c2ccc3c(ccn3C)c2)CC1	111	110
CCOc1ccc(NC(=O)CN2C(=O)c3ccccc3Sc3ccc(C(=O)OC)cc32)cc1	111	116
COc1ccc(Cl)cc1NC(=O)c1cc(S(=O)(=O)NC2CCCCCC2)ccc1F	115	116
Cc1oc(-c2ccccc2Cl)nc1CS(=O)CC(=O)N1CCN(c2cccc(C(F)(F)F)c2)CC1 (configuration not stated)	106	98
COc1ccccc1CNC(=O)C(=O)NCC(c1cccs1)S(=O)(=O)c1ccc(F)cc1 (configuration not stated)	115	108
CCS(=O)(=O)c1ccccc1C(=O)N1CCN(c2nc3ccccc3s2)CC1	106	105
CC1=C(C(=O)Nc2ccccc2)C(c2ccccc2Cl)n2ncc(C(=O)Nc3cccc(C)c3)c2N1 (configuration not stated)	106	111
CCc1ccc(N2C(=O)CS(=O)(=O)C23C(=O)N(Cc2ccccc2F)c2ccccc23)cc1 (configuration not stated)	104	104
CCOC(=O)c1cc2c(=O)n3ccccc3nc2n(CC2CCCO2)c1=NC(=O)c1ccc(C)cc1 (configuration not stated)	88	130
Cc1ccc(CNC(=O)c2c(O)nc3ccccn3c2=O)cc1	114	109
CCCNC(=O)C1CCC(Cn2c(=O)c3sccc3n(CC(=O)N(CC)CC)c2=O)CC1 (configuration not stated)	114	99
COc1ccccc1Nc1nn2c(=O)c3ccc(C(=O)NC4CCC(C)CC4)cc3nc2s1 (configuration not stated)	107	97
COc1ccc(C2CC(=O)Oc3c2c(=O)n(C)c2ccccc32)c(OC)c1OC (configuration not stated)	102	102
CCc1ccc(CNC(=O)CCc2c(C)nn(-c3ccc(N4CCCC4)nn3)c2C)cc1	108	111
CC(=O)OC(COc1ccccc1)Cn1cnc2cc(C)c(C)cc21 (configuration not stated)	101	99
Cc1ccc(OCC(=O)Nc2ccc3nc(SCC(=O)N4CCOCC4)sc3c2)cc1C	112	112
CCc1ccccc1NC(=O)Cn1c(=O)n(Cc2ccco2)c(=O)c2ccccc21	103	105
O=C(CCSCCc1ccccn1)Nc1ccc(Cl)cc1	108	114
Cc1ccccc1CSc1nc(-c2ccccc2)nc2c1Cc1c(CO)cnc(C)c1O2	117	113
COc1ccc(-c2ccc(NS(=O)(=O)c3cccc(C)c3)cc2)nn1	106	107
COc1ccc(Cn2c(C(=O)O)c(CNCc3ccc(SC)cc3)c3ccc(OC)cc32)cc1	109	101
CCN(c1ncnc2c1c(-c1ccccc1)cn2-c1ccccc1)C1CCCCC1	109	105
Cc1cccc(NC(=O)Cn2c(C(F)(F)F)nc3ccccc32)c1C	105	107
Cc1ccc(S(=O)(=O)N2CCC(N3CCN(Cc4ccccc4)C(=O)C3=O)CC2)cc1C	102	107
CCc1ccccc1NC(=O)c1cc(S(=O)(=O)N2CCCC2)cn1C	106	110
CCOC(=O)c1c(-c2ccccc2)oc2ccc(NS(=O)(=O)c3ccc(C(C)C)cc3)cc12	108	110
CCOc1ccc(NC(=O)Cn2c(=O)n(CCCC(=O)NCc3ccc4c(c3)OCO4)c(=O)c3ccccc32)cc1	106	108
COc1cc(CN(C(=O)COc2ccc(C)cc2)c2ccccn2)cc(OC)c1OC	109	110
CN(C)S(=O)(=O)c1ccc2c(c1)N(CC(=O)NCc1ccc(F)cc1)C(=O)CS2	110	105
CCCN1CCN(CCCNC(=O)c2cc3c(=O)n(CC)c4ccccc4c3s2)CC1	93	93
CCn1c(=O)c2sccc2n2c(CCCC(=O)N3CCN(c4cccc(Cl)c4)CC3)nnc12	103	104
COc1cc(NC(=O)Cn2ncc3c(=O)oc4ccccc4c32)cc(OC)c1OC	110	111
COC(=O)c1c(NC(=O)COc2ccccc2Cl)sc2c1CCC(C(C)(C)C)C2 (configuration not stated)	108	105

As a short view, part of the list above.
SMILES	PV pol inh	PV pol inh intensity
Cc1ccc(S(=O)(=O)N2CCC(N3CCN(Cc4ccccc4)C(=O)C3=O)CC2)cc1C	102	107
CCc1ccccc1NC(=O)c1cc(S(=O)(=O)N2CCCC2)cn1C	106	110

The listing continues.
SMILES	PV pol inh	PV pol inh intensity
COc1cc(OC)c(NC(=O)CC(C)S(=O)(=O)c2ccc3c(c2)NC(=O)CO3)cc1Cl (configuration not stated)	105	107
COc1cc(NC(=O)c2noc3c2CSc2ccccc2-3)cc(OC)c1OC	112	102
CCOc1cc(C2C(C(=O)Nc3ccc(OC)cc3)=C(C)Nc3nc(SC)nn32)ccc1O (configuration not stated)	108	105
CC1Cc2cc(S(=O)(=O)CCC(=O)Nc3cccc(F)c3)ccc2N1C(=O)C1CC1 (configuration not stated)	109	113
CC(CCc1ccccc1)NC(=O)CSc1n[nH]c(-c2ccccc2Cl)n1 (configuration not stated)	108	107
CCN1CCN(C(=O)Cn2ncc3c4ccccc4n(Cc4ccccc4F)c3c2=O)CC1	109	108
Cc1nc(-n2nc(C)c(Cc3ccc4c(c3)OCO4)c2C)sc1C(=O)Nc1ccc(Cl)cc1	104	101
CC(C)c1ccc(NC(=O)CN2C(=O)c3cccc4cccc2c34)cc1	106	109
COc1cc(NC(=O)N(Cc2ccco2)C2CCN(C(C)=O)CC2)cc(OC)c1OC	113	95
Cc1ccc(-n2ncc(C(=O)NCCCN3CCN(C)CC3)c2C2CCN(C(=O)OC(C)(C)C)CC2)c(C)c1	110	112
CCc1ccc(NC(=O)c2cc(-c3cccs3)on2)cc1	104	101
CC(NC(=O)CN(c1ccc(Cl)cc1Cl)S(=O)(=O)c1ccccc1)c1ccccc1 (configuration not stated)	102	104
Cn1c(Oc2ccc(Cl)cc2)nc2c1c(=O)n(Cc1ccc(F)cc1)c(=O)n2C	114	114
Cn1c(=O)n(C)c2cc(N3CCCC3)c(NC(=O)Nc3ccccc3)cc21	106	107
CSc1ccc(CCNC(=O)c2ccc3c(Cl)c4c(nc3c2)CCCC4)cc1	105	106

Reprinted from the part before: 2 entries; new compounds follow.
SMILES	PV pol inh	PV pol inh intensity
Cn1c(=O)n(C)c2cc(N3CCCC3)c(NC(=O)Nc3ccccc3)cc21	106	107
CSc1ccc(CCNC(=O)c2ccc3c(Cl)c4c(nc3c2)CCCC4)cc1	105	106
COc1ccc(NC(=O)CSc2nc(-c3cc(OC)c(OC)c(OC)c3)[nH]c2-c2ccc(F)cc2)cc1	109	107
CCCC12CN3CC(CCC)(CN(C1)C3c1ccc(OC(C)C)cc1)C2=O (configuration not stated)	110	115
CC(=O)Nc1nonc1-c1nnc(SCC(=O)Nc2cc(Cl)ccc2C)n1C	113	103
Cc1ccc(N2CCN(C(=O)c3cccn4c(=O)c5ccc(Cl)cc5nc34)CC2C)cc1 (configuration not stated)	112	112
O=C(O)c1cccc(NC(=O)c2cccc(S(=O)(=O)Nc3cccc(F)c3)c2)c1	101	94
CC(C)c1noc(-c2ccccc2OCC(=O)Nc2cccc([N+](=O)[O-])c2)n1	103	107
O=C(CC1N=C2c3ccccc3N=C(SCc3ccc(Cl)cc3)N2C1=O)NC1CCCCC1 (configuration not stated)	108	115
Cc1nc2sccn2c(=O)c1S(=O)(=O)NCc1ccccc1	107	110
COc1ccc(-c2noc(CN3CCN(c4ccccc4OC)CC3)n2)cc1OC	104	110
CC1CCN(C(=O)c2ccccc2NC(=O)c2nsc3ccccc23)CC1	110	107
O=C(c1ccc(F)cc1)N1CCN(CCc2ccncc2)CC1	104	104
COc1ccc(S(=O)(=O)N(CC(=O)Nc2cccc(C(F)(F)F)c2)c2ccc(C)cc2)cc1	105	106
Cc1ccc(NC(=O)C2CCCN(S(=O)(=O)c3cccs3)C2)c(C)c1 (configuration not stated)	106	112
COc1ccc2c(CNCCc3cccs3)c(C(=O)O)n(Cc3ccccc3)c2c1	113	113
O=C(CSc1nc2c(c(=O)[nH]1)CN(Cc1ccc3c(c1)OCO3)CC2)Nc1cccc(Cl)c1	106	115

Part of the list above, with values under each structure.
Screens in order – PV pol inh	PV pol inh intensity
> O=C(Cn1nc(-c2ccccc2)c2c(c1=O)CCCC2)Nc1ccc(F)c(Cl)c1
 : 113	101
> COc1cc(NC(=O)c2ccccc2)ccc1NC(=O)c1cc2ccccc2o1
 : 107	109
> CCOC(=O)c1c(-c2ccccc2)oc2ccc(N(C(C)=O)S(=O)(=O)c3ccc(CC)cc3)cc12
 : 108	113
> CNC(=O)C1CCN(Cc2cc3ccccc3n2Cc2ccccc2C)CC1
 : 108	112

Continued.
SMILES	PV pol inh	PV pol inh intensity
CCOC(=O)c1c(C)oc2nc(C)nc(NCCc3ccc(S(N)(=O)=O)cc3)c12	105	110
CC1=C(C(=O)Nc2cccc(Cl)c2C)C2(CCCCCC2)OC1=O	108	111
O=c1oc2cc(O)ccc2cc1-c1nc(-c2ccc(Cl)c(Cl)c2)cs1	97	283
Cc1ccc(C(=O)Nc2ccc(-n3c(C)nc4ccccc4c3=O)cc2)cc1[N+](=O)[O-]	111	103
CCOc1ccccc1NC(=O)CSc1nccn1-c1cccc(C)c1	109	111
COc1cc2c(=O)n(Cc3ccccc3)c(=O)n(CC(=O)Nc3cc(C(F)(F)F)ccc3Cl)c2cc1OC	110	110
Nc1c(C(=O)Nc2ccc(OC(F)(F)F)cc2)nnn1Cc1ccccc1	107	113
CCOC(=O)C1=C(CN2CCN(CC)CC2)NC(=O)NC1c1ccc(Cl)cc1 (configuration not stated)	112	112
COCCNC(=O)Cn1c(=O)n(CCCCCC(=O)NCc2ccc3c(c2)OCO3)c(=O)c2sccc21	105	109
Cc1cccc(CNC(=O)c2cnc3sc(N4CCOCC4)nn3c2=O)c1	107	101
Cc1c(C(=O)Nc2ccc(F)c(C(F)(F)F)c2)sc2nc(-c3ccccc3)cn12	105	97
Nc1nonc1-c1nc2ccccc2n1CC(=O)Nc1ccccc1C(=O)O	101	101
Cc1ccc(Cn2c(CNC(=O)c3ccc(Cl)c([N+](=O)[O-])c3)nc3cccnc32)cc1	106	105
O=C(Nc1cccc(C(=O)OCc2cc(=O)n3nc(C4CC4)sc3n2)c1)c1cccc(Cl)c1	106	105
Cc1cc(C)c(NC(=O)Cn2c(=O)n(Cc3ccc(C(=O)NCc4ccco4)cc3)c(=O)c3sccc32)c(C)c1	105	97
O=C(NCc1ccco1)c1ccc(Cn2c(SCc3ccccc3F)nc3cccnc32)cc1	112	107
O=C(CCCn1c(=O)c2ccccc2n(Cc2cccc(F)c2)c1=O)NCc1ccccc1Cl	105	107
